Compound activity (PubChem)
GLA inh pH 4.5 = qHTS Assay for Inhibitors of Human alpha-Galactosidase at pH 4.5. 230,000 tested, under 10 active. purified enzyme, 4-MU-alpha-Gal fluorescence, pH 4.5. Alpha-galactosidase A (Homo sapiens), P06280. AID 1467, 2008. activity change, negative = inhibition, % at 105 µM; inconclusive = small, poorly fitted or top-dose-only inhibition, or a rising curve; inactive = flat fitted curve, though single readings scatter; no compound was filed as active;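 further: 0% = full activity with enzyme and -100% = basal without enzyme; dose as in the result columns while the protocol names 77 µM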
Rango-impB inh = qHTS Assay for Inhibitors of Rango (Ran-regulated importin-beta cargo) - Importin beta complex formation; Potency, µM (series often up to 92.2 µM), without a hit: top-dose inhibition of complex formation; Importin subunit beta-1 (Homo sapiens), Q14974; Rango CFP/YFP FRET sensor + importin beta, 45 min; actives 0.031% (n = 340,000); AID 540263, 2011; active = rising FRET ratio curve, often small or poorly fitted; inconclusive = mostly compound fluorescence or quenching in the first reads; inactive = flat curves in all reads;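 further: potency means the concentration at half of the fitted maximal effect; 0% = DMSO wells and 100% = buffer wells lacking importin beta; nearly all actives have a fitted effect of over 15% in size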
Target sequence (Q14974 whole entry, looked up): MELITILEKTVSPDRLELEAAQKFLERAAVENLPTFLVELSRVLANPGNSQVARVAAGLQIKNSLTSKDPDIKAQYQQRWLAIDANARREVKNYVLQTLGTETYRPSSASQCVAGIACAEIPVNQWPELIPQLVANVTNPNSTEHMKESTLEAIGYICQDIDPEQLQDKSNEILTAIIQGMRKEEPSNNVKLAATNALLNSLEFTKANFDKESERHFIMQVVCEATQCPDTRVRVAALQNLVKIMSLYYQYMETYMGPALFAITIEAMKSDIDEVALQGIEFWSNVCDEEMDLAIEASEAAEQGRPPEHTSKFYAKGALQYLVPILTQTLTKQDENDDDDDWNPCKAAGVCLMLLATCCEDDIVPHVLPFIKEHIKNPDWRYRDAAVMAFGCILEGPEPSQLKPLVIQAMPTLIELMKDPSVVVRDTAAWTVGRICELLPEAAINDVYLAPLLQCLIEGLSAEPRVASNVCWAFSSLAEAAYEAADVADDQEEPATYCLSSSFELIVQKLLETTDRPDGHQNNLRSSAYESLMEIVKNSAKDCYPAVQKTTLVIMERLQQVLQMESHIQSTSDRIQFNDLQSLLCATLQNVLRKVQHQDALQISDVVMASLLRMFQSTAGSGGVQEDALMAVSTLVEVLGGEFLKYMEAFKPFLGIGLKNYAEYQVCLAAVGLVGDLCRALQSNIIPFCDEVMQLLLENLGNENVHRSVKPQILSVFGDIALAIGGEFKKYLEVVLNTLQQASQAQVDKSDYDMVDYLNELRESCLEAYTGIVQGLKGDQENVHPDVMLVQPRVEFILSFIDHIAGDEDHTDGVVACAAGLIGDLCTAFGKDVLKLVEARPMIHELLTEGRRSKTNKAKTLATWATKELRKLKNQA
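Inhibition scored from the CFP 486 nm/YFP 530 nm FRET ratio 45 min after adding 0.125 microM importin beta to 50 nM Rango biosensor preincubated 5 min with compound (room temperature, PBS with DTT, Tween-20, BSA). No-importin wells as positive control.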
Rango dissoc inh = qHTS Assay for Inhibitors of RanGTP induced Rango (Ran-regulated importin-beta cargo) - Importin beta complex dissociation; Potency, µM (doses to about 46.1 µM), inactives show at the highest dose activity change, negative = inhibition; Biochemical FRET Rango-importin beta, RanGTP-induced dissociation; AID 540253, 2011; actives 0.071% (n = 340,000); active means falling FRET ratio curve, often poorly fitted, with flat reads before Ran was added; inconclusive means other falling curves, or compound fluorescence or quenching; inactive means flat or rising ratio curve;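 further: potency means the concentration at half of the fitted maximal effect; % of control where 0% means no effect; nearly all actives have a fitted effect of over 45% in size; -100% = wells without RanGTP and RCC1; the record marks most hits as doubtful in a second field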
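FRET read at 45 min, room temperature: inhibitors block the CFP/YFP signal rise when RanGTP (0.6 uM Ran, 2 mM GTP, 0.2 uM RCC1) frees Rango (0.1 uM) from importin beta (0.25 uM). Pre-read after 5 min compound exposure flags interference.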
miR-21 FLuc = qHTS Assay for Modulators of miRNAs and/orActivators of miR-21; HeLa miR-21 FLuc reporter, luciferase, 48 h; Potency, µM (highest dose often 38.3 µM), for the others: at the top dose reporter change, positive = more light; 340,000 tested, under 10 active; AID 2288, 2010; active = well fitted rising curve with a large enough effect; inconclusive = small, poorly fitted or top-dose-only effect; inactive = no such curve, though single readings can be large or run the other way;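 further: % of control where 0% means no effect; miR-21 action dims this reporter so a rising signal means less miR-21 action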
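Compounds were titrated across several concentrations (up to approximately 40 uM) and incubated 48 hours with HeLa miR-21-FLuc reporter cells (miR-21 target sequence downstream of FLuc, endogenous miR-21). Readout was firefly luciferase luminescence after lytic detection reagent.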
An asterisk follows results filed as active; ? = inconclusive; / = no result given; & = joins results of further samples; [ ] = dose if it differs, or a comment. This is a subset; the hit share may differ from the screen's.

SMILES | GLA inh pH 4.5 | Rango-impB inh | Rango dissoc inh | miR-21 FLuc
CC(OC(=O)c1cc2sccc2n1C)C(=O)NCCc1ccccc1 (stereo unspecified) | 2 | 2.5% | 8% | 12%
CCCCn1c(NCc2ccccc2O)nc2ccccc21 | -18 | 0.4% | -3% | 1%
CCOc1ccc(C(=O)CN2CCN(S(=O)(=O)c3ccc(F)cc3)CC2)cc1 | -1 | -2.6% | -13% | 0%
CC(C)(C)NC(=O)CSc1nc2ccccc2c(=O)[nH]1 | 9 | 2.5% | -17% | -40%
COc1ccc(CCNC2=NCCS2)cc1 | 3 | 0.4% | 2% | -12%
COc1ccccc1-c1sc2cc3c(cc2c1-c1ccc(OCCN2CCCCC2)cc1)OCO3 | / | 1.2% | 1% | /
CC(C)c1ccc(S(=O)(=O)N2CCN(C(=O)c3ccco3)CC2)cc1 | -7[21.1 µM] | -2.8% | -6% | 5%
CCOC(=O)c1oc2ccccc2c1NC(=O)CN1CCOCC1 | 3 | 0.4% | -9% | 17%
COC(=O)CCC(=O)OC1(C)C(=O)C=C2C=C(C3CC3)N(C(CO)CO)C=C2C1=O (stereo unspecified) | 10&-11 | ? | -13% | -2%
O=C(CSc1nncc2ccccc12)Nc1ccc(F)cc1 | / | -2.5% | 7% | -4%
COc1ccc(NC(=O)N2CCN(S(=O)(=O)c3ccc(F)cc3)CC2)c(OC)c1 | / | 2.1% | 1% | 0%
COc1ccc(OC)c(S(=O)(=O)N2CCc3ccccc3C2)c1 | / | 5.1% | 3% | -3%
C/C(=N/OC(=O)c1ccc(Cl)cc1Cl)c1oc(C)nc1C | -9 | 1.5% | 6% | -78%
O=C(CSc1ncn[nH]1)N(C1CCCCC1)C1CCCCC1 | 6 | 0.0% | -2% | 3%
O=C(CSc1nnc2ccc(-c3ccc(F)cc3)nn12)N1CCOCC1 | / | -0.8% | 5% | /
Cc1ccccc1S(=O)(=O)Cc1ccc(C(=O)N2CCN(c3cccc(C)c3C)CC2)o1 | -19 | -1.6% | -3% | 28%
O=C(NCCCNC(=O)c1ccccc1)c1ccccc1 | / | 0.6% | -6% | /
CCOC(=O)C(=O)Nc1ccc(F)cc1 | 4 | 2.3% | 23% | -1%
COc1ccc(C)cc1NC(=O)CN1C(=O)CSc2ccc(S(=O)(=O)N3CCCC3)cc21 | / | -0.7% | -5% | 0%&11%
CCOC(=O)c1c(-c2ccccc2)nnn1-c1nc(OCC)nc(N2CCCCC2)n1 | -7 | 5.6% | 8% | 18%
CCCNC(=O)CCn1nc(-c2ccc(C)cc2)c2ccccc2c1=O | / | 0.9% | 15% | -1%&5%
O=C(COc1ccc(F)cc1)NCC1CCCO1 (stereo unspecified) | 6 | 0.8% | 1% | -7%
Cc1ccc(NC(=O)CC2C(=O)NCCN2C(=S)Nc2ccccc2)c(C)c1 (stereo unspecified) | 3 | -1.9% | -5% | -2%
CN(CC(=O)Nc1ccc(N2CCOCC2)cc1)CC(=O)Nc1ccccc1C#N | 12 | -4.5% | 3% | -1%
COc1cc(/C(C)=N/N2CCN(c3ccccc3OC)CC2)ccc1O | / | 3.5% | -7% | -32%
CCOC(=O)c1sc(NC(=O)c2ccoc2C)c(C(N)=O)c1C | / | -1.6% | -8% | -9%
Cc1ccc(C(=O)NNC(=O)c2ccccc2-n2cccc2)cc1 | 1 | 1.3% | 4% | -3%
Cc1ccc(NC(=O)c2cc(N3C(=O)C4CC=CCC4C3=O)ccc2N2CCOCC2)cc1Cl (stereo unspecified) | -6 | -2.1% | 0% | -4%
O=C(c1ccccc1)c1ccc(COC(=O)c2cnccn2)cc1 | 8 | -0.8% | -8% | -5%
COc1ccc2c(c1)[nH]c1c(=O)n(CCCN3CCOCC3)cnc12 | 1 | -3.7% | -2% | -8%
O=C(N[C@@H](Cc1c[nH]c2ccccc12)C(=O)O)c1ccc(Cl)cc1 | 2 | ? | -6% | -2%
C/C=C\C(=O)Nc1cccc(C2=NOC3(C2)C[C@@H](C(N)=O)N(C(=O)COc2ccc(Cl)cc2)C3)c1 (stereo partly specified) | 2 | -3.7% | -7% | 17%
O=C(c1cc2ccccc2oc1=O)N1CCCC1 | 3 | -0.1% | 28% | 1%
CSc1ccc(CN2CCN(C(=O)CC(C)C)CC2)cc1 | / | 7.5% | 17% | 7%
COc1cccc2c1OCC(C(=O)Nc1nccs1)=C2 | / | 0.0% | 10% | -38%
CCCCCOC(=O)CCN1C(=O)/C(=C2\SC(=S)N(CCC(=O)OCCCCC)C2=O)SC1=S | -6 | -0.5% | 8% | 1%
CC(=O)Oc1ccc(OC(C)=O)c2c1CC(C)=C(C)C2 | 1 | -0.3% | -4% | ?
COc1ccc(-c2nc(NCCCN(C)C)c3ccccc3n2)cc1 | / | 1.2% | 1% | 3%
CN1CCN(c2cc(-c3ccccc3)nc3cc(-c4ccc(F)cc4)nn23)CC1 | 6 | -5.3% | 16% | 0%
Cc1cccc2c(=O)cc(C)n(CC(N)=O)c12 | -4 | -6.5% | -1% | 0%
O=C(NCc1cccc(F)c1)C1CCC(=O)N(C2CC2)C1 (stereo unspecified) | / | 1.0% | 4% | -2%
CCN1CCc2c(sc(NC(=O)Cc3ccccc3)c2C(=O)OC)C1 | / | ? | -22% | 0%
CC1CCCN(C(=O)COC(=O)c2ccc[nH]c2=O)C1 (stereo unspecified) | -10 | -1.5% | -1% | 0%
COC(=O)CN1CCN(C(c2ccccc2)c2ccccc2)CC1 | 3 | -0.1% | 12% | 1%
Cc1cccc(N(CC(=O)NC2CCCC2)C(=O)CS(=O)CC(=O)Nc2ccc3c(c2)OCO3)c1 (stereo unspecified) | -5 | 0.1% | -6% | -2%
COc1ccc(C2c3c(oc4ccccc4c3=O)C(=O)N2c2ccc(C)cn2)cc1OC (stereo unspecified) | 0 | -1.7% | -8% | -8%
COC(=O)c1cccc(C23CC4(C2)[C@H](CN(Cc2cccnc2)[C@@H]4c2ccccc2)C3c2ccc(C(F)(F)F)cc2)c1 (stereo partly specified) | -12&-6 | -4.2% | -9% | 5%
O=C(/C(=N/N=C/c1ccc(O)c(O)c1O)c1ccccc1)c1ccccc1 | 1 | -3.5% | 2% | ?
COc1ccc2c(c1)O[C@H]1c3ccc(O)cc3OC[C@@H]21 | / | 2.1% | 4% | /
O=[N+]([O-])c1ccccc1SN(Cc1ccccc1)c1ccccn1 | -17 | ? | -3% | -9%

(list continues)
SMILES | GLA inh pH 4.5 | Rango-impB inh | Rango dissoc inh | miR-21 FLuc
Cc1ccccc1CC(=O)N1CC(C)OC(C)C1 (stereo unspecified) | / | 0.3% | 2% | -3%
O=C1C(Cl)=C(NCCc2ccccc2)C(=O)N1CCc1ccccc1 | 3 | ? | ? | 2%
CC1Cc2ccccc2N1C(=O)CSc1nnc(-c2ccc(S(=O)(=O)N3CCCCC3)cc2)o1 (stereo unspecified) | -14 | / | / | -1%
CCN1C(=O)/C(=C/c2ccc(C)s2)NC1=S | 0 | ? | ? | -3%
O=C(Nc1nc(-c2cccs2)c(-c2cccs2)s1)C1(c2ccccc2)CC1 | 12 | -0.8% | 2% | 1%
CCC1(c2ccc(Cl)cc2)NC(=S)N(c2ccccc2)N1 (stereo unspecified) | 15 | -0.9% | 22% | -35%
CCC1CCCCN1CCCNC(=O)c1cn(CC(C)C)c(=O)c2cc(OC)c(OC)cc12 (stereo unspecified) | 1 | 0.3% | -4% | -7%
CCc1ccc(-c2cc(C)no2)cc1S(=O)(=O)N1CCN(c2ccccc2F)CC1 | / | -2.1% | -4% | 0%
O=C1C2C3C=CC(C4CC34)C2C(=O)N1c1ccc2c(c1)OCO2 (stereo unspecified) | -2 | -1.7% | -6% | -5%
COc1ccccc1NC(=O)c1sc(Cl)nc1C | / | -3.1% | -3% | -6%
CCn1c(SCc2ccc(C(=O)Nc3nccs3)cc2)nnc1-c1ccc(NC(C)=O)cc1 | 4 | -1.2% | 1% | -6%
CC(C)N1CC=C2C(C#N)=C(N)C(C#N)(C#N)[C@H](c3ccoc3)[C@H]2C1 | -11 | / | / | -3%
Cc1nc2ccc(C(=O)N3CCN(c4ccccc4)CC3)cc2s1 | 3 | 0.5% | 11% | -10%
O=C(C1Cc2ccccc2CN1C(=O)c1ccccc1)N1CCN(c2ccccc2)CC1 (stereo unspecified) | -22 | 5.7% | -8% | 0%
CC1C(=O)N2CCCc3cc(NC(=O)CC(C)(C)C)cc1c32 (stereo unspecified) | / | ? | -23% | -1%
c1cc2c(cc1CNc1ccc(N3CCOCC3)cc1)OCO2 | / | 4.0% | 5% | /
Cc1ccc(O)c(-c2cc(C(=O)Nc3ccc(S(=O)(=O)Nc4nccc(C)n4)cc3)[nH]n2)c1 | 3 | -3.9% | 0% | -29%
CC1CCCC(NC(=O)C2CCN(S(=O)(=O)N3CCCCCC3)CC2)C1C (stereo unspecified) | -5 | -2.2% | 22% | -3%
COc1ccc(CCN=C(N)Nc2nc(C)cc(C)n2)cc1 | 5 | -0.7% | 0% | 25%
CCOC(=O)c1ccccc1NC(=O)COC(=O)C1CC(=O)N(CCc2ccccc2)C1 (stereo unspecified) | / | -2.0% | -1% | /
CCCn1nnnc1-c1cccc(Cl)c1 | 7 | 6.1% | 19% | 5%
COc1ccccc1CNS(=O)(=O)CCNC1CC1 | / | -0.9% | -1% | /
CC(=O)c1cccc(NC(=O)CN(c2ccccc2)S(C)(=O)=O)c1 | -8 | 1.4% | -3% | -3%
Nc1cc(-c2ccc(Cl)cc2)nn1S(=O)(=O)c1ccccc1 | -2 | 0.0% | 10% | 0%
O=C(NCC(=O)N1CCCCC1)c1ccc(Br)o1 | / | -0.4% | -16% | -7%
O=C(CSC1=Nc2ccccc2C2CC=NN12)Nc1ccc(F)cc1Cl (stereo unspecified) | 2 | 0.0% | 1% | -4%
Cc1nn(-c2ccccc2)c2[nH]c(=O)cc(C(F)(F)F)c12 | / | 0.9% | -3% | 0%
Cc1ccc(OC(=O)C2c3ccccc3Oc3ccccc32)cc1C | 6 | 5.2% | 8% | 11%
O=C(NCc1ccccc1)C1=C[C@@H](c2ccc(Br)cc2)C[C@@H](OCCCCO)O1 | 1 | 7.5% | -1% | -12%
O=C(Cn1c(=O)c2cccn2c2ccccc21)Nc1ccc(F)cc1F | / | ? | ? | -20%
CCOC(=O)c1cnn(-c2nc(-c3ccc(F)cc3)cs2)c1C(F)(F)F | -3 | -0.2% | 1% | -5%
CCC(C(=O)OCC(=O)Nc1ccc(Cl)c(S(=O)(=O)N(C)C)c1)c1ccccc1 (stereo unspecified) | -7 | 4.0% | 5% | -2%
Cc1cccc(NC(=S)NCc2cccn2C)c1 | 10 | -0.2% | 4% | 1%
O=C(CSc1nnnn1-c1ccc(O)cc1)Nc1ccc(N2CCOCC2)c(Cl)c1 | 4 | -3.6% | 2% | 5%
C/C(=N\NC(=O)CCc1ccccc1)c1ccc(Br)cc1 | -3 | 3.7% | -8% | -9%
Cn1c(C(=O)N2CCC(C(=O)N3CCOCC3)CC2)cc2sccc21 | 0 | 5.6% | -14% | -5%
O=C1CSC(=S)N1/N=C/c1cc(Br)c(O)c(Br)c1 | / | ? | ? | -1%

Five compounds out of the list, sorted by formula weight, smallest number first:
SMILES | GLA inh pH 4.5 | Rango-impB inh | Rango dissoc inh | miR-21 FLuc
COc1ccccc1NC(=O)c1sc(Cl)nc1C | / | -3.1% | -3% | -6%
O=C(NCc1cccc(F)c1)C1CCC(=O)N(C2CC2)C1 (stereo unspecified) | / | 1.0% | 4% | -2%
O=C1CSC(=S)N1/N=C/c1cc(Br)c(O)c(Br)c1 | / | ? | ? | -1%
O=C(CSc1nnnn1-c1ccc(O)cc1)Nc1ccc(N2CCOCC2)c(Cl)c1 | 4 | -3.6% | 2% | 5%
CC1Cc2ccccc2N1C(=O)CSc1nnc(-c2ccc(S(=O)(=O)N3CCCCC3)cc2)o1 (stereo unspecified) | -14 | / | / | -1%
